# Screening results from PubChem.
# Mtb bLac sens: beta-lactam sensitization of Mtb H37Rv; inhibition, % at 25 µM; 330,000 tested, 0.27% active; M. tuberculosis H37Rv growth with meropenem, percent inhibition; hits of this screen are not shown here;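 active = about 74% or more and at least 40 points above the plate without the antibiotic, then above 30% in a dose series; inconclusive = first-round hits that could not be retested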;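 also: growth measured after seven days incubation then overnight dye step; 0% = bacteria only wells and 100% = bacteria with antibiotic; twin plates without the antibiotic show which effects depend on it; some results filed as inactive read as strong as hits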
# RecA splice inh: inhibitors of M. tuberculosis RecA intein splicing. 290,000 tested, 0.75% active. inhibition, %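 (about 9 µM by stock and volumes)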. cell-free RecA intein splicing, fluorescence; in the data active = inhibition above about 30%; inconclusive = no clear call, values can overlap the other calls;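 also: 0% = vehicle wells and 100% = reference inhibitor control wells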
# Target sequence (P9WHJ3 whole entry, looked up, canonical isoform): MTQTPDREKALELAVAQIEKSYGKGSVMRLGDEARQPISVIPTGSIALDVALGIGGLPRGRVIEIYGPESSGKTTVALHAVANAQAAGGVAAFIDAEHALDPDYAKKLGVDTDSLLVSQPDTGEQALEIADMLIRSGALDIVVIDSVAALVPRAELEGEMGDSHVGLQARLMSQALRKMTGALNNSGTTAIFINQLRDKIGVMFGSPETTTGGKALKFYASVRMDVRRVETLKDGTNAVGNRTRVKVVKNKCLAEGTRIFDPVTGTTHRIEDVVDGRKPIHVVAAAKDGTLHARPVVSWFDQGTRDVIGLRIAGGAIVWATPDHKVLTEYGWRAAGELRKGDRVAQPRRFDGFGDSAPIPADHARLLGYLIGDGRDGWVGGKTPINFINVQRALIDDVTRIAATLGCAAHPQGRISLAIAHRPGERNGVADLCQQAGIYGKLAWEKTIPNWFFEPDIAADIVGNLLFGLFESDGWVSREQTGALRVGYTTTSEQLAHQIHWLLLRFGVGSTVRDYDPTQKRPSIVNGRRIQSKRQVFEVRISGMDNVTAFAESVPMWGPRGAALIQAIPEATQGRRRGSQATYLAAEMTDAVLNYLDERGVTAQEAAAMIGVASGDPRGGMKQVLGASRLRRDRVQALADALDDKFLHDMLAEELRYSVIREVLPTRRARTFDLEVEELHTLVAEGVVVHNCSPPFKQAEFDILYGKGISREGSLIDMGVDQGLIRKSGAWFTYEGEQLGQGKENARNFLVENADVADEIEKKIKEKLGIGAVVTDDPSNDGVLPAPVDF
# Arbovirus anti: arbovirus infection inhibition | inhibition, % at 10 µM | arbovirus infection cell-based antiviral screen | 200,000 tested, 0.37% active;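 active = inhibition from about 30%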;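 also: bluetongue infection of BSR cells; cell survival read as ATP light after 72 h; 0% = infected wells without compound and 100% = uninfected wells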
# Mtb growth: M. tuberculosis H37Rv growth inhibitors, H37Rv strain (AID 1626) | M. tuberculosis H37Rv growth inhibition; higher % means a stronger effect | one-dose inhibition, % at 10 µM; IC50 in µM for titrated hits | 220,000 tested, 0.95% active;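 active = confirmed in a dose series; inconclusive = inhibition above 80% but not taken into the dose series; inactive = below 80% or under 30% at every dose of the series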;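 also: bacteria incubated seven days before Alamar blue readout; 0% = bacteria only wells and 100% = bacteria with antibiotic wells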
# YopH PTP inh: YopH (Yersinia) phosphatase inhibition; 140,000 tested, 0.16% active; fluorescence Ex485/Em525; AID 898; inhibition, %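 (about 10 µM by stock and volumes)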;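 active = inhibition of 50% or more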;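 also: controls were vehicle for no effect and minimum signal wells for full effect; inactives centre near -20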
# Arbovirus anti repeat: second read-out of Arbovirus anti, no call of its own (marks repeat the call); inhibition, %; measured here: 10K subset replicate screen; many hits read low in the repeat;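 first of two repeat runs on a subset; 0% = infected and 100% = uninfected wells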
# The depositor's hits bear a star; ? = inconclusive; . = not tested or not shown. Some of the compounds tested, so the mix of outcomes need not match the whole.
SMILES,Mtb bLac sens,RecA splice inh,Arbovirus anti,Mtb growth,YopH PTP inh,others
COCC1CCN(C(=O)c2cc(COc3ccc(-n4cncn4)cc3)on2)CC1,-1,-3.3,.,.,.,
Cc1cccc([C@@H]2[C@@H]3C(=O)N(Cc4ccccc4)C(=O)[C@@H]3[C@]3(Cc4ccccc4)C(=O)N(c4ccc(C(F)(F)F)cc4)C(=O)N23)c1,-6,0.0,.,.,.,
O=C(CCCc1ccccc1)NCc1ccc(Cl)cc1,-4,0.8,.,.,.,
CCC(=O)N1CCC2(CC1)Oc1ccc(F)cc1C(=O)C21CC(c2cccnc2)=NO1 (stereo not given),-7,2.4,.,14%,.,
Cc1nc2c(-c3ccccc3)c[nH]n2c(=O)c1Cc1ccccc1,79,-0.4,-18,?,.,
CCc1ccccc1NC(=O)/C(C#N)=C/c1ccc(Sc2ccccc2)o1,12,3.2,13,17%,-4,
COC(=O)c1cn(C(=O)c2ccc(F)cc2)c2ccccc12,-5,5.5,.,.,.,
Cc1c(CC(=O)N[C@@H](C)C(=O)O)c(=O)oc2cc3occ(-c4ccccc4)c3cc12,5,4.1,.,.,.,
Clc1ccc(SCc2cc(N3CCOCC3)nc(-c3ccccn3)n2)cc1,-6,5.9,-15,8.8µM*,.,
CC1(C)CC(=O)c2sc(NS(=O)(=O)c3ccccc3)nc2C1,-3,-2.5,5,6%,.,
Nc1ccc2oc(-c3cccc4ccccc34)nc2c1,9,-2.8,-17,5%,-51,
CCOC(=O)c1c(C)[nH]c(C(=O)COC(=O)CNC(=O)c2ccc(Cl)cc2Cl)c1C,3,1.4,6,-4%,12,
COc1cc2c(cc1O)[C@@H]1Cc3cc(O)c(OC)cc3[C@H](C2)N1C,-3,-5.4,.,-3%,.,
CCOc1ccc(-n2nc(C(=O)N3CCN(CC)CC3)c3ccccc3c2=O)cc1,?,2.1,-1,3%,-39,
Cc1ccc(N2CC(C(=O)Nc3nc4ccc(S(C)(=O)=O)cc4s3)CC2=O)cc1C (stereo not given),-2,-15,.,.,.,
O=C(NCc1nnc(SCC(=O)N2CCCC2)o1)c1ccccc1F,-9,3.7,14,9%,-16,
COc1cccc2[nH]c3c(N4CCN(Cc5ccc6c(c5)OCO6)CC4)ncnc3c12,33,0.5,-20,.,-54,
CCN(CC)S(=O)(=O)c1ccc(N2CCN(c3ccccc3O)CC2)nc1,-8,-1.9,.,.,.,
O=C(NNS(=O)(=O)c1ccc(F)cc1)c1ccccc1,3,-0.7,.,.,.,
Cc1ccc(-n2c(=O)c(C#N)cc3c(=O)n4cccc(C)c4nc32)cc1,-7,-102,-14,-5%,-21,
CCCc1cc(C(=O)NCc2ccc(OC)cc2)no1,4,0.8,0,16%,-27,Arbovirus anti repeat=-5
COc1cccc(/C=C2\N=C(C3CCCCC3)OC2=O)c1OC,-5,-2.8,6,6%,.,
Cn1c(=O)c2c(-c3ccc(C(C)(C)C)cc3)n(N3CCOCC3)cc2n(C)c1=O,-2,2.3,5,0%,3,
CC(C)(C)C(=O)CN1C(=O)NC2(CCc3ccccc32)C1=O (stereo not given),4,1.7,.,.,.,
Cc1nc2ccccc2n1CC(O)COc1ccccc1Cl (stereo not given),-1,3.0,17,0%,.,
CC1CCC2C(=O)N(c3cccc(OS(=O)(=O)c4ccccc4)c3)C(=O)C2C1 (stereo not given),-11,-0.2,2,-8%,-23,
O=C(O)c1cc([N+](=O)[O-])c(Nc2cccc3ccccc23)c([N+](=O)[O-])c1,6,2.8,.,.,.,
Cc1ccc(C(=O)NCCc2ccc(S(N)(=O)=O)cc2)cc1[N+](=O)[O-],4,-1.6,2,.,.,
O=C(NCCc1ccccc1)C1CCCN(S(=O)(=O)c2cccs2)C1 (stereo not given),1,3.6,-2,-2%,-25,
Cc1ccc(F)cc1NC(=O)N1CCNC(=O)C1CC(=O)Nc1cc(Cl)ccc1Cl (stereo not given),-1,-1.6,.,.,.,

# Ordered by formula weight (high to low): some entries from above.
SMILES,Mtb bLac sens,RecA splice inh,Arbovirus anti,Mtb growth,YopH PTP inh,others
Cn1c(=O)c2c(-c3ccc(C(C)(C)C)cc3)n(N3CCOCC3)cc2n(C)c1=O,-2,2.3,5,0%,3,
Cc1ccc(C(=O)NCCc2ccc(S(N)(=O)=O)cc2)cc1[N+](=O)[O-],4,-1.6,2,.,.,
Cc1ccc(-n2c(=O)c(C#N)cc3c(=O)n4cccc(C)c4nc32)cc1,-7,-102,-14,-5%,-21,

# Next section.
SMILES,Mtb bLac sens,RecA splice inh,Arbovirus anti,Mtb growth,YopH PTP inh,others
O=C(Nc1ccc(N2C(=O)C3C4C=CC(C4)C3C2=O)cc1)Nc1nncs1 (stereo not given),-4,2.3,7,2%,.,
CCOP(=O)(OCC)C(NC(=O)c1cccc([N+](=O)[O-])c1)C(Cl)(Cl)Cl (stereo not given),-1,-1.5,.,-6%,.,
Cc1cc(NC(=O)c2cc(C3CC3)on2)n(-c2ccccc2)n1,2,-0.1,0,4%,-20,Arbovirus anti repeat=2
O=C(CSc1nnc(NC(=O)Cc2ccccc2)s1)NCC1CCCO1 (stereo not given),-1,-0.8,6,3%,.,
Cc1cccc(C2N=C(N)Nc3nc4ccccc4n32)c1 (stereo not given),-7,-0.6,.,-9%,.,
O=S(=O)(O)c1cc2oc(-c3ccccc3)nc2c2ccccc12,-2,-0.7,.,.,.,
CCCCNC(=O)CN(C1CCCCC1)S(C)(=O)=O,1,2.3,2,-8%,-23,
COc1ccc(S(=O)(=O)N2CCC(C(=O)NCC3CCCCC3)CC2)cc1,-10,-1.7,.,.,.,
O=C(COc1ccccc1Cl)Nn1cnnc1,-5,-0.2,0,-3%,-36,
O=c1cccccc1NN=C1CCCCC1,0,-3.1,.,-2%,.,
O=C(Nc1ccc(-c2nc3ccccc3o2)cc1)c1cc(-n2cnnc2)ccc1Cl,68,0.0,-6,2%,-35,
CN(C(=O)c1cccs1)c1ccccc1C(=O)O,-13,-2.2,7,-7%,-52,
COc1cccc(CNC(=O)Cn2nc(C)c3c(C)n(-c4ccc(C)cc4)nc3c2=O)c1OC,8,-1.2,.,.,.,
COc1cccc(NC(=O)C(c2ccccc2)N2CCNC(=O)C2)c1 (stereo not given),-4,1.4,1,6%,.,
COC(=O)c1cccc(NC(=O)C2COc3ccccc3O2)c1C (stereo not given),4,0.1,0,-1%,.,Arbovirus anti repeat=1
COc1ccc(NC(=O)C2CCN(S(=O)(=O)c3ccc4c(c3)CC(C)N4C(C)=O)CC2)c(OC)c1 (stereo not given),2,-0.6,.,.,.,
CC(C)Oc1ccc(/C=C(/NC(=O)c2ccccc2)C(=O)NC(Cc2ccccc2)C(=O)O)cc1 (stereo not given),2,2.6,.,.,.,
CCOC(=O)C1=NN(c2ccc(OC)cc2)C2C(=O)N(c3ccccc3OC)C(=O)C12 (stereo not given),-3,.,.,-12%,.,
C=CCc1ccc(OCCCCNC(C)CC)c(OC)c1 (stereo not given),4,2.5,-23,-4%,-21,
COc1ccc(C2/C(=C(/O)c3ccc(C)cc3)C(=O)C(=O)N2C)cc1 (stereo not given),3,1.0,-4,-7%,-42,
O=[N+]([O-])c1ccc(N2CCOCC2)cc1N1CCCCC1,-2,0.6,-2,4%,.,
COc1cccc(NC(=O)C23CCC(C)(C(=O)O2)C3(C)C)c1 (stereo not given),-5,0.3,12,-4%,28,
O=C(CSc1ccc2nnc(-c3cccnc3)n2n1)N1CCOCC1,3,1.9,3,-4%,-42,
CC1(C(=O)NCCN2CCOCC2)C=CC2(CCCCC2)N1C(=O)c1ccccc1 (stereo not given),-12,0.5,1,-17%,-37,
Cc1ccc(-c2csc(/C(C#N)=C(\O)CCl)n2)cc1,.,20,12,-4%,.,
COc1ccc(CN2CCN(Cc3c[nH]c4ccccc34)CC2)cc1,1,-1.5,.,.,.,
Cc1cccc(C)c1NC(=O)CC1SC2=NCCN2C1=O (stereo not given),2,-9.8,-3,-11%,-23,
CS(=O)(=O)c1cnc(-c2ccccc2)nc1-c1ccccc1Cl,-5,-0.9,2,4%,.,
O=S1(=O)CCOC[C@H](Cc2ccccc2)N1Cc1cccc(C(F)(F)F)c1,3,1.8,.,-6%,.,
O=C(CCN1C(=O)/C(=C/c2ccccc2F)SC1=S)NCCc1ccc(O)cc1,8,16,.,.,.,

# Grouped by structure: those above with an aryl thioether with sulfur outside any ring (five)
SMILES,Mtb bLac sens,RecA splice inh,Arbovirus anti,Mtb growth,YopH PTP inh,others
CCc1ccccc1NC(=O)/C(C#N)=C/c1ccc(Sc2ccccc2)o1,12,3.2,13,17%,-4,
Clc1ccc(SCc2cc(N3CCOCC3)nc(-c3ccccn3)n2)cc1,-6,5.9,-15,8.8µM*,.,
O=C(NCc1nnc(SCC(=O)N2CCCC2)o1)c1ccccc1F,-9,3.7,14,9%,-16,
O=C(CSc1nnc(NC(=O)Cc2ccccc2)s1)NCC1CCCO1 (stereo not given),-1,-0.8,6,3%,.,
O=C(CSc1ccc2nnc(-c3cccnc3)n2n1)N1CCOCC1,3,1.9,3,-4%,-42,

# (further entries)
SMILES,Mtb bLac sens,RecA splice inh,Arbovirus anti,Mtb growth,YopH PTP inh,others
CCCCn1c(N)nc2ccccc21,4,-2.2,5,2%,-4,
CCNc1nc(C23CC4CC(CC(C4)C2)C3)cs1,12,13,15,7%,.,
O=C(NCc1ccccc1)c1cc2nc(C3CC3)cc(C(F)(F)F)n2n1,2,2.3,-2,-6%,17,
OC(COc1ccccc1)CN1CCN(c2ncccn2)CC1 (stereo not given),0,2.3,0,-9%,-79,
COC(CN(C(=O)CCl)C(C(=O)NC1CCCCC1)c1ccc(Cl)cc1)OC (stereo not given),-1,35*,-3,1%,-12,
O=C1C2CC=CCC2C(=O)N1c1ncn[nH]1 (stereo not given),3,-1.6,8,3%,-13,
COC(=O)Cc1c(C(=O)OC)nnn1-c1ccc(OC)cc1,4,-1.9,1,-12%,.,
Cc1ccnc(NC(=O)c2cc3ccccc3oc2=O)c1,65,-0.6,-5,53%,.,
CCCCNC(=O)c1ccc2c(c1)S(=O)(=O)c1ccccc1C2=O,0,-11,.,.,.,
NNC(=O)c1ccc2c(c1)S(=O)(=O)NNC2=O,-5,-0.8,2,6%,.,
c1ccc(-c2ccccc2OCCN2CCCCC2)cc1,?,-1.5,0,2%,-17,
CCCc1nnc(SCC(=O)N2CCCCC2C)n1CC (stereo not given),-11,2.0,15,-3%,18,
CCN1CCCC1CN(Cc1cc2cc(C)cc(C)c2[nH]c1=O)C(=O)Nc1ccccc1OC (stereo not given),17,3.7,.,-6%,.,
CCCN(CCC(=O)Nc1ccccc1F)CC1CC1,-9,-1.4,4,3%,5,Arbovirus anti repeat=2
COc1ccc(-c2csc(NC(=O)c3ccc(S(=O)(=O)N4CCc5ccccc5C4)cc3)n2)cc1,7,0.8,0,6%,-27,
COc1cc(C(=O)NC(=S)Nc2csc(-c3ccc(F)cc3)n2)cc(OC)c1OC,48,1.4,.,15%,.,
Cc1ccc(N2C(=O)C3C4C=CC(CC4)C3C2=O)cc1Br (stereo not given),-4,-4.3,.,.,.,
CC(=O)c1cccc(Nc2c3c(nc4ccccc24)CCC3)c1,4,0.8,.,.,.,
O=C(c1ccccc1)c1ccc2c(c1)OCCCO2,-8,-2.3,.,19%,.,
CC(C)C(NC(=O)c1ccccc1NC(=O)c1ccccc1)C(=O)NNC(=O)c1ccncc1 (stereo not given),-8,4.2,.,.,.,
COc1ccc(C(=O)CNc2ccccc2Br)cc1,5,2.3,.,.,.,
Cc1cccc(OCC(=O)Nc2ccc3c(c2)nc2n3CCOC2)c1,-6,-2.8,.,.,.,
CCN(Cc1ccccc1)c1ccc(N=Nc2nn(C)c(C)c2[N+](=O)[O-])cc1,92,1.3,-9,12%,-14,
